A1 apoptosis 2: blocks A1, raising caspase activity | MEF A1-2A-BIM cells, caspase-Glo luminescence, 3 h; percent of clofoctol response, DMSO zero | caspase activation, % (concentration not given with the values) | 24,000 tested, under 10 active; in the data active = caspase activation above about 5.9%;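 also: wells of about 30 µL received 50 nL stock; the first replicate is given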
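System: mouse embryonic fibroblasts co-expressing A1 and BIM (A1-2A-BIM), primed for A1 dependence; amount: 2500 cells/well; doses: 50 nL pinned compound; schedule: cells settled overnight, compound exposure 3 h at 37 °C, 5% CO2; detection: Caspase-Glo 3/7 luminescence, 1 h at room temperature; read-out: Caspase-3/7 activation, seen as rise in luminescence signal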
The depositor's hits bear a star.

SMILES	A1 apoptosis 2
C[C@H](CO)N1C[C@H](C)[C@@H](CN(C)S(=O)(=O)c2ccccc2)Oc2ccc(NC(=O)CCC(F)(F)F)cc2CC1=O	0.4
CCCC(=O)N(CCc1c[nH]c2ccccc12)[C@@H]1CC(C(=O)NCCO)=C[C@H](Oc2c(I)cc(CO)cc2OC)[C@H]1O	-0.4
CNC[C@@H]1Oc2ccc(NC(=O)Nc3ccc(C(F)(F)F)cc3)cc2CC(=O)N([C@H](C)CO)C[C@@H]1C	-0.4
C[C@H]1CN([C@@H](C)CO)C(=O)Cc2cc(NS(C)(=O)=O)ccc2O[C@H]1CN(C)Cc1ccncc1	0.3
Cc1ccc(S(=O)(=O)N(C)C[C@H]2Oc3c(NC(=O)Nc4ccccc4)cccc3C(=O)N([C@@H](C)CO)C[C@@H]2C)cc1	0.4
Cc1ccc(S(=O)(=O)Nc2ccc3c(c2)C(=O)N([C@H](C)CO)C[C@@H](C)[C@H](CN(C)S(=O)(=O)c2c(C)noc2C)OCCCC[C@@H](C)O3)cc1	0.5
Cc1noc(C)c1NC(=O)Nc1cccc2c1O[C@H](CN(C)Cc1ccc(C(=O)Nc3ccccc3N)cc1)[C@H](C)CN([C@@H](C)CO)C2=O	2.0
C[C@@H]1CN([C@H](C)CO)C(=O)c2cccc(NS(=O)(=O)c3ccc(F)cc3)c2O[C@@H]1CN(C)S(=O)(=O)c1cn(C)cn1	0.3
C[C@H](CO)N1C[C@H](C)[C@@H](CN(C)C(=O)Nc2ccccc2)Oc2ccc(NC(=O)Cc3ccccc3)cc2CC1=O	-0.5
C[C@H](CO)N1C[C@H](C)[C@@H](CN(C)C)Oc2ccc(N(C)C)cc2C1=O	-0.4
CC(C)(C)NC(=O)C(OC(=O)c1ccccc1)c1cccs1 (stereo unspecified)	0.1
CNC[C@@H]1Oc2ccc(NC(=O)Cc3ccccc3)cc2CC(=O)N([C@@H](C)CO)C[C@H]1C	0.6
Cc1noc(C)c1NC(=O)N(C)C[C@H]1Oc2c(NC(=O)C3CCOCC3)cccc2C(=O)N([C@H](C)CO)C[C@@H]1C	-0.4
COc1ccc(CN(C)C[C@H]2Oc3ccc(NS(=O)(=O)c4ccc(Cl)cc4)cc3C(=O)N([C@@H](C)CO)C[C@H]2C)cc1	-0.5
C[C@@H]1CN([C@H](C)CO)C(=O)Cc2cc(NC(=O)Nc3ccc(F)cc3)ccc2O[C@@H]1CN(C)Cc1ccncc1	0.8
C[C@@H]1CCCCO[C@@H](CN(C)C(=O)CCC(F)(F)F)[C@H](C)CN([C@@H](C)CO)C(=O)c2cc(NC(=O)Cc3ccccc3)ccc2O1	-0.1
Cc1noc(C)c1NC(=O)N(C)C[C@H]1Oc2ccc(NS(C)(=O)=O)cc2CC(=O)N([C@H](C)CO)C[C@H]1C	1.6
C[C@@H]1CCCCO[C@H](CN(C)S(C)(=O)=O)[C@@H](C)CN([C@@H](C)CO)C(=O)c2cc(NC(=O)NC3CCCCC3)ccc2O1	0.6
C[C@H]1CN([C@@H](C)CO)C(=O)Cc2cc(NS(=O)(=O)c3ccccc3)ccc2O[C@@H]1CN(C)Cc1ccc(C(=O)Nc2ccccc2N)cc1	1.2
CCO[C@@H]1OC(C(=O)N2CCN(Cc3ccc4c(c3)OCO4)CC2)=C[C@H](C2CC2)[C@H]1CCCO	-0.2
CC(C)NC(=O)N(C)C[C@@H]1Oc2c(NS(=O)(=O)c3cn(C)cn3)cccc2C(=O)N([C@@H](C)CO)C[C@@H]1C	0.9
COc1ccc(S(=O)(=O)Nc2ccc3c(c2)C(=O)N([C@@H](C)CO)C[C@@H](C)[C@H](CN(C)Cc2ccncc2)OCCCC[C@H](C)O3)cc1	0.0
COc1ccc([Si](C)(C)[C@@H]2[C@@H](CCO)O[C@]3(C(=O)N(C)c4c(Br)cc(C)cc43)[C@H]2C)cc1	44*
CC(C)NC(=O)Nc1ccc2c(c1)CC(=O)N([C@H](C)CO)C[C@@H](C)[C@H](CN(C)Cc1ccc(Cl)c(Cl)c1)O2	-0.7
CC(C)NC(=O)Nc1ccc2c(c1)C(=O)N([C@@H](C)CO)C[C@@H](C)[C@@H](CN(C)Cc1ccc3c(c1)OCO3)OCCCC[C@@H](C)O2	1.5

Additional results
SMILES	A1 apoptosis 2
C[C@H]1CN([C@@H](C)CO)C(=O)Cc2cc(NS(=O)(=O)c3ccc(Cl)cc3)ccc2O[C@H]1CN(C)S(=O)(=O)c1ccc(Cl)cc1	-0.9
C[C@@H]1CN([C@H](C)CO)C(=O)c2cc(N(C)C)ccc2O[C@@H](C)CCCCO[C@@H]1CN(C)Cc1ccc(C(=O)O)cc1	-0.5
C[C@H]1CN([C@@H](C)CO)C(=O)Cc2cc(NS(=O)(=O)c3ccc(Cl)cc3)ccc2O[C@H]1CN(C)Cc1ccc(-c2ccccc2)cc1	-1.0
C[C@H]1CCCCO[C@H](CN(C)C(=O)CCCN(C)C)[C@@H](C)CN([C@@H](C)CO)C(=O)c2cc(NC(=O)CCC(F)(F)F)ccc2O1	-0.4
Cc1cc(C(=O)Nc2cccc3c2O[C@@H](CN(C)S(=O)(=O)c2ccccc2)[C@@H](C)CN([C@H](C)CO)C3=O)n(C)n1	0.7
C[C@H]1CN([C@@H](C)CO)C(=O)c2cc(NC(=O)C3CC3)ccc2O[C@@H]1CN(C)S(=O)(=O)c1ccccc1	0.5
Cc1ccc(S(=O)(=O)N(C)C[C@@H]2OCCCC[C@H](C)Oc3ccc(NS(=O)(=O)c4cn(C)cn4)cc3C(=O)N([C@H](C)CO)C[C@H]2C)cc1	-1.3
C[C@H]1CN([C@@H](C)CO)C(=O)c2cc(NC(=O)CCN3CCOCC3)ccc2O[C@H]1CN(C)Cc1ccc(-c2ccccc2)cc1	-0.3
C[C@H]1CN([C@@H](C)CO)C(=O)c2cccc(NS(=O)(=O)c3ccc(F)cc3)c2O[C@@H]1CN(C)Cc1ccc(C(F)(F)F)cc1	-0.8
CC(C)NC(=O)N(C)C[C@@H]1Oc2ccc(NC(=O)CCN3CCOCC3)cc2C(=O)N([C@@H](C)CO)C[C@@H]1C	-1.2
Cc1noc(C)c1NC(=O)N(C)C[C@@H]1OCCCC[C@H](C)Oc2ccc(NC(=O)Nc3ccc(C(F)(F)F)cc3)cc2C(=O)N([C@@H](C)CO)C[C@@H]1C	-0.3
C[C@H](CO)N1C[C@H](C)[C@H](CN(C)S(C)(=O)=O)Oc2ccc(NS(C)(=O)=O)cc2C1=O	-0.5
C[C@@H]1CCCCO[C@@H](CN(C)C(=O)c2ccncc2)[C@H](C)CN([C@H](C)CO)C(=O)c2cc(NS(=O)(=O)c3cn(C)cn3)ccc2O1	1.0
C[C@@H]1CCCCO[C@@H](CN(C)Cc2ccncc2)[C@H](C)CN([C@H](C)CO)C(=O)c2cc(NS(=O)(=O)c3cn(C)cn3)ccc2O1	-0.9
C[C@H](CO)N1C[C@H](C)[C@@H](CN(C)Cc2ccncc2)OCCCC[C@H](C)Oc2ccc(NC(=O)Nc3ccc(C(F)(F)F)cc3)cc2C1=O	0.4
C[C@H]1CN([C@@H](C)CO)C(=O)Cc2cc(NC(=O)Cc3cn(C)c4ccccc34)ccc2O[C@H]1CN(C)C(=O)Nc1ccc(C(F)(F)F)cc1	-0.6
C[C@@H]1CN([C@H](C)CO)C(=O)c2cccc(NC(=O)C3CC3)c2O[C@H]1CN(C)C(=O)Nc1ccc2c(c1)OCO2	-1.2
CNC[C@@H]1Oc2c(NC(=O)Nc3ccc(C(F)(F)F)cc3)cccc2C(=O)N([C@H](C)CO)C[C@H]1C	-0.5
CC(C)NC(=O)Nc1ccc2c(c1)C(=O)N([C@H](C)CO)C[C@H](C)[C@@H](CN(C)C(=O)Nc1ccc(F)cc1)OCCCC[C@H](C)O2	-1.3
CC(C)NC(=O)N(C)C[C@@H]1Oc2ncc(C#Cc3cccc(F)c3)cc2C(=O)N([C@H](C)CO)C[C@@H]1C	0.8
C[C@@H]1CCCCO[C@H](CN(C)C(=O)Nc2ccc(C(F)(F)F)cc2)[C@@H](C)CN([C@H](C)CO)C(=O)c2cc(NS(C)(=O)=O)ccc2O1	2.2
C[C@@H]1CCCCO[C@H](CN(C)S(C)(=O)=O)[C@@H](C)CN([C@@H](C)CO)C(=O)c2cc(NS(C)(=O)=O)ccc2O1	1.4
Cc1noc(C)c1S(=O)(=O)Nc1ccc2c(c1)C(=O)N([C@@H](C)CO)C[C@@H](C)[C@H](CN(C)Cc1ccc(C(=O)Nc3ccccc3N)cc1)O2	-0.4
CNC[C@H]1Oc2ccc(NS(=O)(=O)c3ccc(Cl)cc3)cc2C(=O)N([C@@H](C)CO)C[C@@H]1C	2.1
C[C@H]1CN([C@@H](C)CO)C(=O)Cc2cc(NC(=O)CCCCCC(=O)Nc3ccccc3N)ccc2O[C@@H]1CN(C)C(=O)Nc1ccccc1	-1.7

A different layout for some results above:
C[C@H](CO)N1C[C@H](C)[C@@H](CN(C)Cc2ccncc2)OCCCC[C@H](C)Oc2ccc(NC(=O)Nc3ccc(C(F)(F)F)cc3)cc2C1=O
  A1 apoptosis 2: 0.4

C[C@H]1CN([C@@H](C)CO)C(=O)Cc2cc(NC(=O)Cc3cn(C)c4ccccc34)ccc2O[C@H]1CN(C)C(=O)Nc1ccc(C(F)(F)F)cc1
  A1 apoptosis 2: -0.6

C[C@@H]1CN([C@H](C)CO)C(=O)c2cccc(NC(=O)C3CC3)c2O[C@H]1CN(C)C(=O)Nc1ccc2c(c1)OCO2
  A1 apoptosis 2: -1.2

CNC[C@@H]1Oc2c(NC(=O)Nc3ccc(C(F)(F)F)cc3)cccc2C(=O)N([C@H](C)CO)C[C@H]1C
  A1 apoptosis 2: -0.5

The listing continues:
SMILES	A1 apoptosis 2
COc1ccc(S(=O)(=O)Nc2ccc3c(c2)C(=O)N([C@@H](C)CO)C[C@@H](C)[C@H](CN(C)Cc2ccc(C(F)(F)F)cc2)OCCCC[C@@H](C)O3)cc1	-1.2
C[C@@H]1CN([C@@H](C)CO)C(=O)c2cc(NS(=O)(=O)c3ccccc3)ccc2O[C@@H](C)CCCCO[C@@H]1CN(C)Cc1ccncc1	-1.4
Cc1noc(C)c1S(=O)(=O)N(C)C[C@@H]1OCCCC[C@@H](C)Oc2ccc(NS(=O)(=O)c3ccc(Cl)cc3)cc2C(=O)N([C@H](C)CO)C[C@H]1C	-1.9
O=C(O)C1=C[C@@H](C2CCCC2)C[C@@H](OCCCCO)O1	0.2
C[C@H](CO)N1C[C@H](C)[C@H](CN(C)S(=O)(=O)c2cn(C)cn2)OCc2cnnn2CCCC1=O	0.6
C[C@H](CO)N1C[C@H](C)[C@@H](CN(C)C)OCCCC[C@H](C)Oc2ccc(NC(=O)CCC(F)(F)F)cc2C1=O	-0.2
C[C@@H]1CCCCO[C@@H](CN(C)CC2CCCCC2)[C@@H](C)CN([C@H](C)CO)C(=O)c2cc(NS(=O)(=O)c3ccc(Cl)cc3)ccc2O1	-1.2
C[C@H](CO)N1C[C@H](C)[C@H](CN(C)C(=O)Nc2ccccc2)Oc2ccc(NC(=O)Nc3ccc(F)cc3)cc2C1=O	0.1
C[C@H]1CN([C@@H](C)CO)C(=O)c2cc(NC(=O)C3CC3)ccc2O[C@@H]1CN(C)Cc1ccncc1	-0.9
C[C@@H]1CN([C@@H](C)CO)C(=O)Cc2cc(NS(C)(=O)=O)ccc2O[C@@H]1CN(C)C(=O)NC1CCCCC1	-0.3
C[C@@H]1CCCCO[C@H](CN(C)C(=O)Nc2cccc3ccccc23)[C@@H](C)CN([C@@H](C)CO)C(=O)c2cc(N(C)C)ccc2O1	0.4
O=C(N/N=C/c1c(O)cc(O)cc1O)c1ccccn1	-8.0
C[C@@H]1CCCCO[C@@H](CN(C)Cc2ccc(C(F)(F)F)cc2)[C@@H](C)CN([C@H](C)CO)C(=O)c2cc(NC(=O)NC3CCCCC3)ccc2O1	-0.1
COc1cccc(CN(C)C[C@H]2OCc3cn(nn3)CCCC(=O)N([C@H](C)CO)C[C@@H]2C)c1	-0.8
C[C@@H]1CN([C@H](C)CO)C(=O)c2cc(NC(=O)Nc3ccccc3)ccc2O[C@H]1CN(C)S(=O)(=O)c1cccs1	0.8
Cc1ccc(S(=O)(=O)Nc2ccc3c(c2)CC(=O)N([C@@H](C)CO)C[C@@H](C)[C@@H](CN(C)S(=O)(=O)c2ccc(F)cc2)O3)cc1	-0.3
C[C@@H]1CN([C@H](C)CO)C(=O)c2cc(NC(=O)Nc3ccc(F)cc3)ccc2O[C@H]1CN(C)C(=O)Nc1ccc(C(F)(F)F)cc1	-1.1
C[C@H](CO)N1C[C@H](C)[C@H](CN(C)Cc2ccc(C(=O)O)cc2)Oc2ccc(NS(C)(=O)=O)cc2C1=O	-0.8
CNC[C@H]1Oc2c(NS(C)(=O)=O)cccc2C(=O)N([C@H](C)CO)C[C@@H]1C	-0.4
COc1ccc(NC(=O)Nc2ccc3c(c2)C(=O)N([C@H](C)CO)C[C@H](C)[C@@H](CN(C)S(=O)(=O)c2cn(C)cn2)OCCCC[C@H](C)O3)cc1	0.8
O=C(Nc1ccccc1)C1=C[C@@H](c2ccc(C(F)(F)F)cc2)C[C@@H](OCc2ccc(CO)cc2)O1	-1.2

In another format: entries from further up.
| SMILES | A1 apoptosis 2 |
| --- | --- |
| O=C(O)C1=C[C@@H](C2CCCC2)C[C@@H](OCCCCO)O1 | 0.2 |
| C[C@H](CO)N1C[C@H](C)[C@H](CN(C)S(=O)(=O)c2cn(C)cn2)OCc2cnnn2CCCC1=O | 0.6 |

Assay outcomes as filed in PubChem.

These rows are one share of the data; rates above refer to the full screens.
